# Assay outcomes (PubChem)
# RE007 growth inh = less growth of the S. pombe RE007 Vpr strain; Potency, µM (top dose mostly 92.2 µM), without a hit: top-dose activity change, negative = less growth; 360,000 compounds, 0.21% hits; S. pombe RE007 Vpr strain, BacTiter-Glo ATP luminescence, 24 h; control for the full effect not named in the record; active = well fitted falling curve with a large enough effect; inconclusive = small, poorly fitted or top-dose-only effect; inactive = no such curve, though single readings can be large or run the other way;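 further: on the % scale 0 is the no-effect control and ±100 the full control effect; nearly all actives have a fitted effect of over 50% in size; the assay follows cell death caused by Vpr and the record does not say whether a fall means rescue or toxicity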
#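 Fission yeast RE007 carrying one integrated HIV-1 vpr copy, seeded at OD 0.01 in PMG+AL medium with 23 nL pinned compound. Grown 24 h at 30 degrees; viability read by BacTiter-Glo luminescence after 5 min.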
# Cruzain Triton = blocks cruzain activity in presence of Triton detergent. 200,000 compounds, 0.43% hits. P25779. purified cruzain, Z-FR-AMC fluorescence, 0.01% Triton. Potency, µM, for inactives: max response, negative = inhibition, usual class: inhibitors; active means well fitted curve in the direction sought with a large enough effect; inconclusive means small, poorly fitted or top-dose-only effect, or another doubt; inactive means no such curve, though single readings can be large; an effect the other way counts as inactive or inconclusive;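 further: plate controls were neutral wells for no effect and buffer without enzyme for full effect; nearly all actives have a fitted effect of over 40% in size; top concentration of the series not given in the record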
# Target sequence (P25779 123-467 limits assumed): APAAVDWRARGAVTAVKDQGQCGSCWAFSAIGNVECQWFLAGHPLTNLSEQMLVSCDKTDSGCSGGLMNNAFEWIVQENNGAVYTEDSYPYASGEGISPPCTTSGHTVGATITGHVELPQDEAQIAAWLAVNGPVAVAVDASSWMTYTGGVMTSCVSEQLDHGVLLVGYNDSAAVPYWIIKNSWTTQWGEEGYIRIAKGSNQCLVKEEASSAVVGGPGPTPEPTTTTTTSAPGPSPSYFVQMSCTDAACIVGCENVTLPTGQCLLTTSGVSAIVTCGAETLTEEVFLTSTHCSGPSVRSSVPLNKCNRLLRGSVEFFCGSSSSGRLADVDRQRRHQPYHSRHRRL
#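 Enzyme 1.5 nM, Z-FR-AMC 2 uM, NaOAc 100 mM pH 5.5, DTT 5 mM, Triton X-100 0.01%; 15 min RT compound preincubation; kinetic ex360/em450, 60 s delta.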
# Lassa entry inh = Lassa virus entry inhibition; Lassa virus pseudotype entry inhibition, cell reporter; control for the full effect not named in the record; Potency, µM (top dose mostly 37.9 µM), without a hit: at the highest dose activity change, negative = inhibition, usual class: inhibitors; 300,000 compounds, 1.2% hits; active means well fitted inhibition curve with a large enough effect; inconclusive means small, poorly fitted or top-dose-only effect, or effect the other way; inactive means flat fitted curve, though single readings scatter; tested in HEK293 cells; further: on the % scale 0 is the no-effect control and ±100 the full control effect; nearly all actives have a fitted effect of over 50% in size; luciferase read-out
# 2A StopGo = lowers the luciferase signal of an FMDV 2A StopGo reporter. human cells with a luciferase reporter of 2A StopGo recoding; control for the full effect not named in the record. Potency, µM (doses to about 57.9 µM), for the others: at the top dose signal change, negative = less light. 410,000 compounds, 1.2% hits; active = well fitted falling curve with a large enough effect; inconclusive = small, poorly fitted or top-dose-only effect; inactive = no such curve, though single readings can be large or run the other way; tested in HEK293T cells; further: on the % scale 0 is the no-effect control and ±100 the full control effect; nearly all actives have a fitted effect of over 45% in size; luciferase light after 4 h
# NS1 inh = blocks influenza NS1 protein function. S. cerevisiae slowed by influenza A NS1, growth recovery by OD600. Potency, µM (titrated, usually from 46.1 µM), for the others: at the highest dose activity, positive = more growth. 270,000 compounds, 0.4% hits. AID 2326; further: actives are rising curves; nearly all actives have a fitted effect of over 50% in size
#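 Compounds were scored for reversing the slow growth caused by influenza A NS1 in S. cerevisiae, measured by optical density at 600 nm. Assay medium contained 2% galactose at pH 6.0; NS1-free yeast of the same strain were the positive control.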
# Cruzain inh noDet = inhibitors of Trypanosoma cruzi cruzain without detergent; purified cruzain, Z-FR-AMC fluorescence, no detergent; 200,000 compounds, 2.3% hits; P25779; AID 1476; Potency, µM, without a hit: max response, negative = inhibition, usual class: inhibitors; active means well fitted curve in the direction sought with a large enough effect; inconclusive means small, poorly fitted or top-dose-only effect, or another doubt; inactive means no such curve, though single readings can be large; an effect the other way counts as inactive or inconclusive;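 further: plate controls were enzyme without inhibitor for no effect and buffer without enzyme for full effect; nearly all actives have a fitted effect of over 40% in size; top concentration of the series not given in the record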
#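 Detergent-free condition (0.00005% Triton X-100) in acetate buffer pH 5.5 with DTT. 1.5 nM enzyme and compound were pre-mixed 15 min, then 2 uM Z-FR-AMC substrate added; reaction progress from fluorescence change between first and third reads (60 s).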
# SARS PLP yeast = inhibitors of SARS-CoV papain-like protease in yeast; Potency, µM (top dose mostly 32.9 µM), for the others: at the highest dose activity, positive = growth rescue; S. cerevisiae expressing SARS-CoV PLpro, growth rescue; control for the full effect not named in the record; 330,000 compounds, 0.19% hits; further: 0% is about no effect; nearly all actives have a fitted effect of over 55% in size; growth read by luminescence after 48 h
# MARV entry inh = Marburg virus entry inhibition; Potency, µM (titrated, usually from 37.8 µM), for inactives: at the top dose activity change, negative = inhibition, usual class: inhibitors; Marburg virus pseudotyped entry inhibition, cell reporter; control for the full effect not named in the record; about a third of the inactives were read at about 46 µM; 300,000 compounds, 1.8% hits; active = well fitted inhibition curve with a large enough effect; inconclusive = small, poorly fitted or top-dose-only effect, or effect the other way; inactive = flat fitted curve, though single readings scatter; tested in HEK293 cells; about a fifth of its hits are not listed in these tables; further: on the % scale 0 is the no-effect control and ±100 the full control effect; luciferase read-out
# Numbers without * were called inactive; ? = inconclusive; · = not tested or not shown; & = joins results of further samples; [ ] = another dose, or the depositor's remark. Unless noted, the call rests on the fitted dose curve; in most records, active means well fitted rising curve with a large enough effect; inconclusive means small, poorly fitted or top-dose-only effect; inactive means no such curve, though single readings can be large or run the other way. Potency means the concentration at half of the fitted maximal effect. Compounds as they come; any-hit rate near 4.7%.
SMILES,RE007 growth inh,Cruzain Triton,Lassa entry inh,2A StopGo,NS1 inh,Cruzain inh noDet,SARS PLP yeast,MARV entry inh
Cc1ccc(C(=O)c2ccc(C)cc2)cc1,-4%,·,10%[46.1 µM],24%,·,·,-5%,-1%[46.1 µM]
C=C(C)C1CC=C(C)/C(=N/NC(=O)COc2cccc3ccccc23)C1 (configuration not stated),11%,-6.9%,-1%,-1%,7%,12%,-1%,-19%
CN(c1ccc(S(=O)(=O)N2CCOCC2)cn1)C1CCCCC1,15%,4.7%,0%,-18%,0%,7%,-1%,5%
CCc1cccc(NC(=O)Nc2ccc3c(c2)OCO3)c1,-12%,·,-28%[46.1 µM],45%[activator],-3%,·,0%,?
N#Cc1ccc(NC(=O)CN2CCCCCC2)cc1Cl,-17%,·,?,6%,-2%,·,11%,?
COCCNS(=O)(=O)c1cc(F)ccc1OC,-9%,4.1%,3%,8%,4%,-7%,1%,11%[46.1 µM]
COc1ccc(-c2ccnc(SCC(=O)c3ccc(OC)c(OC)c3)n2)cc1,-16%,-4.9%,-7%,-34%,-4%,?,-2%,?
O=C(COc1ncnc2ccccc12)NCCc1ccc(F)cc1,-8%,·,4%,5%,·,·,0%,?
CN1CCN(C(=O)c2ccc(COc3cc(Cl)ccc3Cl)o2)CC1,5%,·,?,-10%,-2%,·,-1%,5%[46.1 µM]
N#CC1=C2SCN(Cc3ccco3)CN2C(=O)CC1c1ccc(Cl)cc1 (configuration not stated),-9%,-16%,-5%,-20%,-55%,18%,1%,-6%
Cc1ccc(/C=C/C(=O)c2nc3ccccc3[nH]2)cc1,-22%,2.8%,0%,-19%,-77%,-8%,-13%,?
Cc1ccc(S(=O)(=O)N2CCN(S(C)(=O)=O)C2)cc1,0%,0.3%,?,-21%,4%,1%,3%,30%
Cc1ccc(OCCCC(=O)Nc2nnc(C3CCCO3)s2)c(C)c1 (configuration not stated),12%,·,?,-2%,3%,·,0%,-4%[46.1 µM]
CCn1c(SCC(=O)Nc2nnc(C)s2)nnc1-c1ccncc1,-5%,-0.4%,-3%,14%,5%,-2%,3%,1%
Cc1cccc(NC(=O)CC(=O)Nc2cccc(C)c2)c1,26%,·,25%,19%,-8%,·,0%,11%

# The closing 6 compounds of the part before lead into the next.
SMILES,RE007 growth inh,Cruzain Triton,Lassa entry inh,2A StopGo,NS1 inh,Cruzain inh noDet,SARS PLP yeast,MARV entry inh
N#CC1=C2SCN(Cc3ccco3)CN2C(=O)CC1c1ccc(Cl)cc1 (configuration not stated),-9%,-16%,-5%,-20%,-55%,18%,1%,-6%
Cc1ccc(/C=C/C(=O)c2nc3ccccc3[nH]2)cc1,-22%,2.8%,0%,-19%,-77%,-8%,-13%,?
Cc1ccc(S(=O)(=O)N2CCN(S(C)(=O)=O)C2)cc1,0%,0.3%,?,-21%,4%,1%,3%,30%
Cc1ccc(OCCCC(=O)Nc2nnc(C3CCCO3)s2)c(C)c1 (configuration not stated),12%,·,?,-2%,3%,·,0%,-4%[46.1 µM]
CCn1c(SCC(=O)Nc2nnc(C)s2)nnc1-c1ccncc1,-5%,-0.4%,-3%,14%,5%,-2%,3%,1%
Cc1cccc(NC(=O)CC(=O)Nc2cccc(C)c2)c1,26%,·,25%,19%,-8%,·,0%,11%
S=C1COC(c2ccccc2)N1c1ccccc1 (configuration not stated),20%,1.9%,7%,14%,-7%,5%,0%,-24%
Cc1cccc(-n2c(-c3ccco3)nc3ccccc3c2=O)c1C,4%,·,5%[46.1 µM],-28%,-8%,·,16%,?
CCN(CC(=O)Nc1cc(S(=O)(=O)N2CCCCC2)ccc1C)Cc1ccccc1,-5%,·,?,?,·,·,-2%,·
CCOC(=O)c1cc(-c2csc(-c3ccc(C(C)(C)C)cc3)n2)on1,3%,·,-18%,24%,4%,·,0%,3%
CCOc1ccccc1C1C(C(N)=O)=C(C)Nc2nc(-c3ccc(OC)cc3)nn21 (configuration not stated),?,0.7%,-21%,-4%,11%,-2%,1%,12%
Cc1ccc(CN2CCN(/N=C/c3ccc(C(=O)O)cc3)CC2)cc1,22%,-3.7%,13%,-16%,19%,-12%,-2%,1%
Cc1nc2nc[nH]n2c(=O)c1NS(=O)(=O)c1ccc(Br)cc1,·,-0.5%,-3%[46.1 µM],1%,·,0%,·,7%[46.1 µM]
O=C(O)CCCC(=O)N1CCOCCOCCOCCOCC1,-3%,·,·,-22%,4%,·,-2%,·
O=C(O)c1ccc(C(=O)Nc2cccc(NC(=O)C3CCCO3)c2)cc1 (configuration not stated),8%,-0.7%,-1%,2%,4%,0%,-1%,-14%
O=C(COc1ccc2ccccc2c1)NC1=NCCS1,-16%,0.1%,-15%,33%[activator],-9%,15%,-5%,3%
CCC(c1nc2ccccc2c(=O)n1-c1nc2ccccc2s1)N1C(=O)c2ccccc2C1=O (configuration not stated),-8%,-5.9%,-6%,-22%,10%,8%,-28%,-1%
COc1ccc(OC)c(S(=O)(=O)N2CCCC(C(=O)NCc3ccccn3)C2)c1 (configuration not stated),10%,·,11%[46.1 µM],-7%,5%,·,-5%,-9%[46.1 µM]
O=C(CSc1nc2ccccc2c(=O)[nH]1)N1CCOCC1,-9%,-0.9%,10%,·,2%,-3%,8%,7%
O=C(OCc1ccc(C(=O)c2ccccc2)cc1)c1cccc(-c2nnc(-c3ccccc3)o2)c1,13%,-1.7%,?,61%[activator],14%,-16%,-3%,?
CC(C)(C)NC(=O)NC(=O)COc1ccccc1C#N,2%,1.2%,-16%,30%[activator],2%,-3%,1%,?
Cc1ccc(CNC(=O)C2CSC3(C)CCC(=O)N23)cc1 (configuration not stated),-13%,·,-15%[46.1 µM],7%,·,·,3%,?
CN(C)S(=O)(=O)c1ccc(C(=O)NCC[N+]2(C)CCCCCC2)o1,-3%,·,·,-12%,24%,·,-1%,·
COc1ccc(CCNC(=O)CN(C2CCCCC2)S(C)(=O)=O)cc1OC,5%,-0.1%,7%,·,?,0%,1%,4%
Cc1ccc2ccc(C3C(=O)c4ccccc4C3=O)nc2c1,-7%,·,?,77%[activator],·,·,·,?
O=C(CSc1nc2ccccc2o1)NCC1CCCO1 (configuration not stated),11%,·,?,12%,·,·,·,10%
COc1ccc(-c2nc(-c3ccccn3)no2)cc1,?,·,?,7.9µM*,-7%,·,-5%,0.29µM*
CCN1CCN(C(=S)c2ccc(OCC(=O)N3CCOCC3)cc2)CC1,22%,-7.1%,8%,1%,-1%,-5%,5%,18%
CC(C)C1NC(=S)N(C2CCCCC2)C1=O (configuration not stated),-11%,-2.6%,?,?,2%,-10%,-5%,10%
Cc1noc(C)c1S(=O)(=O)N(Cc1ccccc1)C(C)C,2%,·,?,-12%,-3%,·,0%,-7%
Cn1ccc(C(=O)Nc2cccnc2Cl)n1,2%,·,20%[46.1 µM],7%,3%,·,-2%,6%[46.1 µM]
[O-][N+](=Cc1ccccc1)c1ccc(Cl)cc1,9%,·,?,32%[activator],·,·,·,3%
Cc1cc2ccccn2c1C(=O)c1ccc(NN)c([N+](=O)[O-])c1,5%,·,?,4%,·,·,2%,8.9µM*
CCc1nc(SCC(=O)c2cccs2)c2oc3ccccc3c2n1,-4%[3.69 µM],3.6%,-9%,-18%,-1%,8%,-2%,?
O=c1ccc2ccc(O)c(O)c2o1,·,-7.1%,?,·,5%,-3%,·,8%&8%&8%&9%&8%
Cc1cccn2c(=O)c(/C=C(\C#N)c3nc4ccccc4s3)c(Oc3ccc(Br)cc3)nc12,·,-7.7%,19%[46.1 µM],-10%,·,-16%,·,10%[46.1 µM]
COCCNc1nnc(Cc2ccccc2)c(=O)[nH]1,13%,·,-6%[46.1 µM],-17%,4%,·,2%,-8%[46.1 µM]
CCOc1cc(C)c(C(C)C)cc1S(=O)(=O)N1CC(C)OC(C)C1 (configuration not stated),12%,-5.7%,-22%,5%,-32%,?,-1%,?
Cc1cccc(/C=N/NC(=O)c2ccc(NC(=O)c3ccc(Cl)cc3)cc2)n1,1%,·,-7%[46.1 µM],11%,-1%,·,11%,?
CCc1ccc(OC2=NS(=O)(=O)c3ccccc32)cc1,-2%,·,·,8%,2%,·,1%,·
Cc1cccc(C)c1NC(=O)Cn1cc(C(=O)c2ccco2)c2ccccc21,·,-6.2%,-3%[46.1 µM],-8%,·,10%,·,?
Cc1cc(C)cc(CN2CCC(Oc3ccc(C(=O)N4CCCC4)cc3)CC2)c1,-2%,·,?,14%,-6%,·,-1%,?
Cc1cc(N(C)C)nc(SC(C)C)n1,-1%,2.7%,2%,-9%,-1%,5%,-3%,16%
CCOC(=O)c1c(NC(C)=O)sc2c(OC)cccc12,-10%,4.3%,7%,1%,-24%,-1%,-4%,-3%
COc1cccc(C(=O)C2CCCN(Cc3ccc(OC)c(Cn4cncn4)c3)C2)c1 (configuration not stated),-22%,·,-15%,-23%,-1%,·,3%,?
COc1c2ccoc2c(OC[C@@H](O)C(C)(C)OC)c2oc(=O)ccc12,-5%,-1.7%,3%,22%,-12%,-5%,-1%,-3%
COc1ccc(C)cc1-n1nnnc1SCc1cc(=O)n2cc(C)ccc2n1,31%,1.0%,?,16µM*,-42%,23%,7%,3%[46.1 µM]
COc1ccc(NC(=O)CN2CCN(S(=O)(=O)N3CCCCCC3)CC2)cc1,9%,·,?,-9%,3%,·,0%,-1%[46.1 µM]
CCOc1ccc(-c2cn[nH]c2N)cc1,8%,-3.0%,1%,0%,?,-3%,-2%,-5%
CCc1cc(-c2n[nH]c(=S)n2CC(C)C)cs1,6%,-6.0%,-10%,?,-25%,-18%,13%,?
CCOc1ccc(C(C)(C)C)cc1S(=O)(=O)Nc1ccncc1,-8%,·,·,111%[activator],6%,·,8%,·
